Compound activity deposited in PubChem BioAssay by National Center for Advancing Translational Sciences (NCATS).
D2 ag: Beta-Arrestin HTS for Positive Allosteric Modulators of the Human D2 Dopamine Receptor: Agonists | 0.084% of 360,000 active | D(2) dopamine receptor (Homo sapiens), P14416 | activation, % (test concentration not listed) | DiscoveRx PathHunter D2 beta-arrestin, luminescence, 90 min; 100% = 57 uM dopamine signal; in the data active = activation above about 40%; inconclusive = about 15% to 40%; inactive = below about 15%; note: compound concentration not given in the record; the text of the record calls up to 30% inactive
Target sequence (P14416 whole entry, looked up): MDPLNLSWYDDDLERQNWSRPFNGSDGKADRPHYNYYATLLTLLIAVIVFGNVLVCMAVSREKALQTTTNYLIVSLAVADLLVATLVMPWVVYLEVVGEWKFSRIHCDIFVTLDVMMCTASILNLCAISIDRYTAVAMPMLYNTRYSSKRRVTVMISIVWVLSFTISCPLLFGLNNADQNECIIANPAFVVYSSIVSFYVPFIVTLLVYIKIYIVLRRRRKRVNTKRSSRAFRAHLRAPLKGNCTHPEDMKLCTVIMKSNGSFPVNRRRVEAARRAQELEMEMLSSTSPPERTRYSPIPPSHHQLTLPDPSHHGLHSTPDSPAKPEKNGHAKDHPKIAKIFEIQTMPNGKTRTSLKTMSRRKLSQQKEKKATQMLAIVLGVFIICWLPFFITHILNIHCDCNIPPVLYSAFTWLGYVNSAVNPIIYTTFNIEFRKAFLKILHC
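DiscoveRx PathHunter D2 beta-arrestin cells (2,100/well) attached overnight, then compound-stimulated 90 min at 37 C in HBSS/10 mM HEPES/0.1% Tween-20 buffer; beta-galactosidase complementation read by luminescence after 1 h at ambient temperature. Dopamine 57 uM final (EC100) as control.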
gsp antagonist: qHTS for Antagonists of gsp, the Etiologic Mutation Responsible for Fibrous Dysplasia/McCune-Albright Syndrome: qHTS; gsp-mutant cells, cAMP HTRF, 30 min; control for the full effect not named in the record; Potency, µM (doses to about 76.9 µM), inactives show top-dose activity change, negative = inhibition, usual class: inhibitors; 0.4% of 340,000 active; AID 624288, 2012; active = falling curve of any shape with a large fitted effect; inconclusive = falling curve, mostly with a smaller effect; inactive = flat or rising curve; cell line not stated here;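 note: intracellular cAMP measured with PDE inhibitor Ro 20-1724 present during compound exposure; potency is the fitted concentration of half-maximal effect; % is set by controls: 0 for no effect and ±100 for the full control effect; nearly all actives have a fitted effect of over 65% in size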
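HTRF cAMP read-out (cAMP-d2 plus anti-cAMP antibody-K in lysis buffer, 30 min RT). Before lysis, cells are exposed to compounds with […] for 30 min at 37C in DPBS containing Ca/Mg, BSA and Tween 20.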
ClpP mod: qHTS Assay for Activators of ClpP. Potency, µM (top dose mostly 57.5 µM), without a hit: at the top dose activity change, negative = active. 1.9% of 340,000 active. AID 651965, 2013. ATP-dependent Clp protease proteolytic subunit (Bacillus subtilis (strain 168)), P80244. purified B. subtilis ClpP, FRET peptide cleavage, 20 min; active = well fitted falling curve with a large enough effect; inconclusive = small, poorly fitted or top-dose-only effect; inactive = no such curve, though single readings can be large or run the other way; note: potency is the fitted concentration of half-maximal effect; the source files actives as falling curves though it sought activators and does not explain the sign; nearly all actives have a fitted effect of over 65% in size; many hits overshoot -100%
Target sequence (P80244 whole entry, looked up): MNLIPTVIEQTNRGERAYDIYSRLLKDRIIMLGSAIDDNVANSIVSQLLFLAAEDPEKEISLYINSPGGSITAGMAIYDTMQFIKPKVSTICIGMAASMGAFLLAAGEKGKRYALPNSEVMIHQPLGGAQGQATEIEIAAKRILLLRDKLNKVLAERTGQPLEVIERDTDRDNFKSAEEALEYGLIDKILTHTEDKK
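FRET quenching reversal measured ClpP activation: 10 microg/mL B. subtilis ClpP at pH 8 with the FRET-FV decapeptide, read at 430 nm after 320 nm excitation. The 20-min minus 0-min signal was scaled between DMSO/no-enzyme wells and ADEP (5.8 microM final).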
PINK1 expr mod: A Quantitative High throughput Screen to Identify Chemical Modulators of PINK1 Expression | PINK1 immunofluorescence, high-content cytometry, 24 h | Potency, µM (titrated, usually from 76.6 µM), without a hit: at the highest dose activation (PINK1 increase), usual class: activators | 0.2% of 410,000 active | AID 624263, 2012; active = well fitted activation curve with a large enough effect; inconclusive = small, poorly fitted or top-dose-only effect; inactive = flat fitted curve, though single readings scatter; cell line not stated here;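 note: potency is the fitted concentration of half-maximal effect; % of control where 0% means no effect; nearly all actives have a fitted effect of over 65% in size; a mitochondrial uncoupler was the plate control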
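Stable cell line, 250 cells/well, 12 h attachment; compounds pinned at 5 concentrations, 24 h; CCCP control. Fixed with nuclear dye, primary antibodies 12 h at 10 degrees C, secondary plus cell stain; laser-scanning cytometer read.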
gsp agonist: qHTS for Agonist of gsp, the Etiologic Mutation Responsible for Fibrous Dysplasia/McCune-Albright Syndrome: qHTS. gsp mutant cells, cAMP HTRF, 30 min; control for the full effect not named in the record. Potency, µM (titrated, usually from 76.9 µM), without a hit: top-dose activation (cAMP increase), most hits filed as activators. 0.13% of 340,000 active; active = well fitted activation curve with a large enough effect; inconclusive = small, poorly fitted or top-dose-only effect, or another doubt; inactive = no such curve, though single readings can be large or run the other way; cell line not stated here;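 note: phosphodiesterase inhibitor Ro 20-1724 added with compounds to block cAMP breakdown; potency is the fitted concentration of half-maximal effect; nearly all actives have a fitted effect of over 60% in size; about a fifth of the inactives were tested at one dose only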
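Cells stably selected in G418 were plated at 2000/well, grown 16-24 hr, then given compounds in DMSO with the PDE inhibitor […] (300 uM solution added) for 30 min at 37C; cAMP was read by HTRF.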
Sfp inh: qHTS Assay for Inhibitors of Bacillus subtilis Sfp phosphopantetheinyl transferase (PPTase); Biochemical Sfp PPTase activity, qHTS; Potency, µM, for the others: max response, negative = inhibition, usual class: inhibitors; 3.5% of 310,000 active; AID 1490, 2009; active = well fitted inhibition curve with a large enough effect; inconclusive = small, poorly fitted or top-dose-only effect, or another doubt; inactive = no such curve, though single readings can be large or run the other way;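 note: the enzyme is Sfp with the accession as filed and its product quenches rhodamine fluorescence; potency is the fitted concentration of half-maximal effect; 0% = enzyme reaction without inhibitor and -100% = no enzyme wells; top concentration of the series not given in the record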
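Buffer: 50 mM Hepes-Na pH 7.6, 10 mM MgCl2, 0.01% Nonidet P-40, 0.01% BSA. Enzyme 15 nM, pre-exposed to compound 15 min; substrates then added and fluorescence change tracked over 30 min.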
Menin MLL FP FL: qHTS Assay for Inhibitors Targeting the Menin-MLL Interaction in MLL Related Leukemias: Competition With Fluorescein Labeled MLL-derived Peptide; FP activity change, % at 61.4 µM; Fluorescence polarization, fluorescein-MLL peptide displacement from menin; AID 1766, 2009; 290,000 tested, under 10 active; inconclusive = falling polarisation curve, or a change in total fluorescence; inactive = total fluorescence flat and polarisation flat or rising; no compound was filed as active; the % refers to the polarisation; negative = inhibition;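 note: % of control where 0% means no effect; inhibitors lower the polarisation; unlabelled MLL peptide was the positive control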
The depositor's hits bear a star; ? = inconclusive; . = not tested or not shown; [ ] = remark or other dose.

Results follow in this order: gsp antagonist, Sfp inh, Menin MLL FP FL, D2 ag, PINK1 expr mod, gsp agonist, ClpP mod
#1 O=C(OCC(=O)N1CCCC1)c1cc([N+](=O)[O-])ccc1Cl
→ -6%, 22%, 1.7, 0.2, -1.8%, 22%, .
#2 Cc1cc(C(=O)NC2CCCc3c2cnn3-c2ccccc2F)nc(C)n1 (stereo not drawn)
→ 5%, -6%, ., -3.4, 0.9%, 32%, -2.5%
#3 Cc1cc(Cn2nc(-c3ccccc3)cc2C(=O)NCc2cccc(C(F)(F)F)c2)on1
→ 1%, ., ., 0.0, ?, ., -5.0%
#4 Cc1c(NS(=O)(=O)c2cccc(C(=O)N3CCC(C(N)=O)CC3)c2)c(=O)n(-c2ccccc2)n1C
→ -13%, ., ., -1.4, -3.1%, 22%, .
#5 O=C(CSc1nnc2sc3ccccc3n12)NCc1ccc2c(c1)OCO2
→ 10%, 2%, 1.2, -3.3, 1.7%, ?, 1.0%
#6 CC(=NNC(=S)N1CC2CCC(CC2)C1)c1ccncn1
→ 18%, ., ., 14, -1.5%, -16%, -2.8%
#7 O=C1Nc2ccc(Br)cc2C1(O)Cc1ccncc1 (stereo not drawn)
→ 2%, 13%, 0.3, -0.7, -0.2%, 7%, -1.8%
#8 COc1ccc(CN(C)C2CCCCC2)c(C)c1C
→ 0%, 5%, 0.4, -3.1, ., 0%, -1.7%
#9 COc1ccc(Nc2nccc(N(C)C)c2C#N)cc1
→ 9%, 5%, 0.0, -4.9, -2.5%, 17%, .
#10 Cc1cc(C(=O)Nc2sc3c(c2C#N)CCC3)no1
→ -5%, 6%, 5.6, -4.1, 14%[38.3 µM], -1%, 1.6%
#11 CCOc1ccc(S(=O)(=O)N2CCN(C(=O)CCOc3ccccc3C)CC2)cc1
→ -14%, ., ., 2.4, 2.6%, -18%, 1.7%
#12 c1cnc(SCCOc2cccc3ccccc23)nc1
→ ?, ?, 2.0, -2.1, -3.7%, -11%, -1.7%
#13 Cc1ccc(N(CCC#N)C(=O)COC(=O)C2CCN(S(=O)(=O)c3ccc(C)c(C)c3)CC2)cc1
→ 3%, ., ., -2.8, 0.0%, 15%[15.4 µM], .
#14 Cc1cccn2c(=O)c(C=O)c(N3CCN(C)CC3)nc12
→ -4%, 21%, -12, -1.6, 0.6%, 14%[15.4 µM], -1.0%
#15 O=c1cc(-c2ccc(O)cc2)oc2c(O)c(O)c(O)c(O)c12
→ -10%, 4.5µM*, 4.6, -2.5, 0.3%, ., 1.9%
#16 CC(C)CC(=O)N/C(N)=N/c1nc2ccccc2o1
→ -8%, 20%, -0.2, 2.3, 3.5%, -16%, .
#17 CC(OC(=O)C1CCN(c2ccc(C(F)(F)F)cn2)CC1)C(=O)NC1CCCCC1C (stereo not drawn)
→ -6%, ., ., -2.1, 7.1%, 16%, ?
#18 CCOC(=O)CC1(c2ccc(OC)c(OC)c2)C(=O)c2ccccc2C1=O
→ 2%, 17%, 2.5, -1.4, 0.8%, 10%[15.4 µM], .
#19 CC(C)(C)c1ccc(OCc2nc(-c3ccccn3)no2)c(Br)c1
→ -2%, ?, 2.5, 0.4, 4.9%, 14%, -1.2%
#20 CCOC(=O)C1=C(C)N(c2ccc(OC)cc2)C(=O)/C1=C\c1ccc(O)c(OCC)c1
→ -4%, 20µM*, ?, -2.7, 5.6%, -7%, -2.4%
#21 CCCn1c(C)nc2c(c1=O)c1nc3ccccc3nc1n2CCC1=CCCCC1
→ ?, -3%, -1.1, -1.5, 0.4%, -8%, 32µM*
#22 CNc1nc(N)c([N+](=O)[O-])c(NCC2CCCO2)n1 (stereo not drawn)
→ 17%, 2%, 1.8, 1.2, -0.6%, 0%, 2.1%
#23 CC(C)NC(=O)CC(=O)N/N=C/c1cccs1
→ 0%, ?, -0.2, -4.9, 0.0%, 4%, .
#24 COC(=O)C(NC(=O)c1ccccc1)(Nc1nccs1)C(F)(F)F (stereo not drawn)
→ 3%, 2%, -2.2, 0.4, 2.6%, -3%, -0.5%
#25 CC(C)(C)c1ccc(CN2C(=O)CSC2=O)cc1
→ 3%, -3%, 7.1, -2.8, -0.4%, -19%, -0.7%
#26 O=C(NCC1CCCO1)c1nn2c(C(F)(F)F)cc(-c3cccs3)nc2c1Br (stereo not drawn)
→ 2%, 26%, ?, -2.5, ?, -1%[15.4 µM], -13%
#27 COc1ccc(C(=O)OCC(=O)Nc2c(C)cccc2C)c(OC)c1OC
→ 4%, -2%, -7.0, -2.2, 0.7%, 2%[15.4 µM], .
#28 NCCCNC(=O)Cn1c(=O)c2c3c(sc2n(Cc2ccccc2)c1=O)CCCC3
→ 4%, -5%, 1.5, -7.4, -0.3%, -59%[inhibitor], -0.6%
#29 OC(COCC1COc2ccccc2O1)CN1CCN(c2ccccc2F)CC1 (stereo not drawn)
→ 4%, -2%, -2.6, 7.5, -1.1%, 6%, 0.3%
#30 COC(=O)C1(S(=O)(=O)c2cccc3nsnc23)CC1
→ -7%[15.4 µM], 11%, -1.5, -3.7, -0.5%, 11%, -10%
#31 CNC(=S)N/N=C1\C(=O)c2cccc3cccc1c23
→ 13%, -11%, 1.5, -10, 8.5%, ?, -1.9%
#32 O=C(COC(=O)c1ccc(S(=O)(=O)NCc2ccco2)cc1)NC1CCCCCC1
→ -7%, 56µM*, 0.8, -1.6, 8.7%[38.3 µM], 9%, 1.6%
#33 CC(C)(C)OC(=O)NCc1ccc(CNC(=O)c2nc[nH]c2C(=O)NCc2ccc(CNC(=O)OC(C)(C)C)cc2)cc1
→ -9%, ., ., -0.2, 0.9%, ., -4.4%
#34 O=C(NCc1ccccc1Cl)c1cc(=O)[nH]c2ccccc12
→ 7%, 11%, 8.0, -3.3, -0.4%, 0%[15.4 µM], .
#35 CC(C)c1nnc(NC(=O)CCC(=O)N2CCN(c3ccc(F)cc3)CC2)s1
→ -6%, 14%, ., 2.7, -0.4%, -3%, -1.0%
#36 Cc1ccc(OCCNC(=O)c2cccc(S(=O)(=O)N3CCN(Cc4ccccc4)CC3)c2)cc1
→ -10%, ., ., 10, 0.0%, 20%, -4.9%
#37 CCCCC(=O)Nc1nnc(/C=C/c2ccc(OC)cc2)s1
→ 0%, -7%, -6.0, 1.5, 3.0%, 23%, 4.6%
#38 Cc1ccc(C(=O)N/N=C\c2ccc(Br)o2)o1
→ -2%, 7%, 3.7, 0.7, ., -3%, -13%
#39 COc1ccc(NC(=O)c2cc3nc(-c4ccccc4)cc(C)n3n2)cc1OC
→ -26%, 8%, -0.3, 1.7, 0.8%, 20%, .
#40 c1ccc(C2=NN(c3ccccc3)C(c3ccco3)C2)cc1 (stereo not drawn)
→ 6%, ?, 1.1, 0.1, -4.2%, ?, .
#41 CN(C(=O)c1cccc(NC(=O)Cc2ccc(NC(=O)C3CCCN(C(=O)C4CCCCC4)C3)cc2)c1)C1CCC1 (stereo not drawn)
→ 0%, ., ., 4.2, 0.1%, ., 1.0%
#42 Cc1coc2cc3oc(=O)c4c(c3cc12)CCCC4
→ 1%, -2%, 2.2, 1.8, 0.1%[38.3 µM], -19%, -26%
#43 Cc1ccc2c(c1)-c1c(ssc1=S)C(C)(C)N2C(=O)CSC1=NCCS1
→ -1%, -2%, -2.4, -0.4, -6.1%[38.3 µM], -4%, -1.1%
#44 COc1ccc(CCC2(C)NC(=O)NC2=O)cc1 (stereo not drawn)
→ 9%, 13%, 2.0, -0.9, ?, -43%[inhibitor], -6.4%
#45 CC(C)CNC(=O)CN(C1CCCCC1)S(=O)(=O)c1ccccc1
→ 6%, 4%, -4.8, -3.1, -2.2%, 0%, -3.0%
#46 Cc1ccc[n+](-c2[nH]c(=O)sc2/C=N/N=C(\[O-])c2cccnc2)c1
→ 4%, -12%, -29, 1.8, -0.9%, -3%, 0.9%
#47 CCCNc1cc(C)oc(=O)c1C(=O)CCC
→ 4%, 16%, 1.9, -2.5, ., -1%, 1.0%
#48 CCn1cc(C(C)NC(=O)Nc2ccccc2C(=O)OC)c(C)n1 (stereo not drawn)
→ 5%, 15%, -1.7, -0.2, 2.1%, -11%[15.4 µM], .
#49 COc1ccccc1CNC(=O)CN(C)CC(=O)Nc1ccccc1Br
→ -5%, ., ., -2.4, 3.7%, -19%, -15%
#50 NS(=O)(=O)c1cccc(NC(=O)COC(=O)COc2ccc3ccccc3c2)c1
→ -5%, -15%, 3.2, 2.0, 0.3%, -3%[15.4 µM], .
#51 C/C=C(\C)C(=O)O[C@@H]([C@H](O)c1cc2ccc(=O)oc2cc1OC)C(C)(C)O
→ 2%, ., ., -1.8, 0.4%, ., 4.9%
#52 S=C(N/N=C/c1ccccc1Cl)Nc1ccccc1
→ 7%, 30%[activator], 6.1, -3.4, -20%[38.3 µM], -1%, -3.7%
#53 CC(C)CNc1nnnc2c1sc1nc(N3CCOCC3)c3c(c12)CCCC3
→ 1%, 6%, 2.1, -2.4, 2.6%, 12%[15.4 µM], .
#54 O=C(CCN1C(=O)/C(=C/c2ccccc2Cl)SC1=S)Nc1ccccn1
→ 5%, 15%, ., 10, 2.7%, -13%, -0.7%
#55 CC(OC(=O)c1ccc(S(=O)(=O)N2CCCCC2)cc1)C(=O)NC1CCCCC1C (stereo not drawn)
→ 6%, 2%, ., -0.4, -0.3%, 4%[15.4 µM], 120%
#56 CC1=C(C(N)=O)C(c2cccs2)n2ncnc2N1 (stereo not drawn)
→ 6%, 22%, 0.7, -5.9, 0.8%, ?, -0.1%
